# B2AR arrestin – beta2AR (human) beta-arrestin recruitment activity; 330,000 compounds, 0.02% hits; Potency, µM (series often up to 46.1 µM), inactives show top-dose activation, actives largely listed as activators; beta-arrestin recruitment to beta2AR, cell-based reporter; P07550;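 further: potency means the concentration at half of the fitted maximal effect; 0% = DMSO controls and full agonism = EC100 isoproterenol or metaproterenol; nearly all actives have a fitted effect of over 65% in size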
# Target sequence (P07550 whole entry, looked up): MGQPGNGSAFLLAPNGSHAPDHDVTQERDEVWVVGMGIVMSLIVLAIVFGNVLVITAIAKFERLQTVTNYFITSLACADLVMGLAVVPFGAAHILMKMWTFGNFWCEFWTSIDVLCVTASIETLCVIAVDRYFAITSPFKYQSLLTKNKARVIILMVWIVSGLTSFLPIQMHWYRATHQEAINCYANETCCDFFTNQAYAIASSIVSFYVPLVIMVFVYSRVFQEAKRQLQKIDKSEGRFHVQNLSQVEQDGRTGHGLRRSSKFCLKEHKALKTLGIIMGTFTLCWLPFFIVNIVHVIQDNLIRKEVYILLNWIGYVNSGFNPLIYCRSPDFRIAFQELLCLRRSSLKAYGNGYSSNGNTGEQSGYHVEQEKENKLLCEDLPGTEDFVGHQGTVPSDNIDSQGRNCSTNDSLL
# FBPA coupling cs – coupling enzyme interference in Giardia aldolase counter-screen | coupling enzyme system counterscreen, AmpLite Red fluorescence | activity change, negative = inhibition, % at 58.2 µM, hits read low | 290,000 compounds, 0.67% hits; in the data active means activity change below about -30%; further: on the % scale 0 is the no-effect control and ±100 the full control effect
#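 Counterscreen lacking aldolase: glyceraldehyde-3-phosphate coupling-enzyme reagent preincubated 10 min at RT with compound (at 57.5 uM final), then substrate/coupling system with AmpLite Red added; fluorescence read at 525/598 nm after 20 min RT.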
# MLL CXXC-DNA inh – inhibitors of human MLL CXXC domain-DNA interaction; Q03164; MLL-CXXC / FITC-HOXA9 DNA fluorescence polarization; 290,000 compounds, 0.037% hits; Potency, µM (top dose mostly 115 µM), inactives show at the highest dose activity change, negative = inhibition, hits mostly inhibitors; AID 2662; active means well fitted inhibition curve with a large enough effect in the polarisation, with a control signal flat, not every such curve was filed as active; inconclusive means small, poorly fitted or top-dose-only effect, or effect the other way, or a change in a side signal; inactive means no such curve, though single readings can be large or run the other way; the % refers to the polarisation; further: potency means the concentration at half of the fitted maximal effect
#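 Purified MLL-CXXC (added from a 7 uM solution) was preincubated 5 min at ambient with pinned compounds in 50 mM Tris-HCl pH 7.5, 50 mM NaCl, 1 mM DTT, 0.05% BSA. Fluorescein-labeled HOX-A9 DNA (50 nM solution) followed, 30 min, then polarization read.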
# TRPV1 agonist – agonists of human vanilloid receptor 1 (TRPV1) | 320,000 compounds, 0.19% hits | Q8NER1 | TRPV1-expressing cells, Fluo-8 calcium influx, agonist mode | activation, % at 8.33 µM; in the data active means activation above about 80%; inconclusive means between about 30% and that limit; further: 0% is about no effect
#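 Cells expressing TRPV1 were dye-loaded with Fluo-8 and read kinetically: 10 s baseline, 3 min after compound (agonist portion), then 2 min after EC20 capsaicin (allosteric enhancer portion). Calcium-bound dye fluorescence at 480/520 nm.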
# KCNH2 3.1 inh – KCNH2 3.1 (human) potassium channel inhibition; U2OS KCNH2 3.1, thallium flux FluxOr; active compounds read low; activity change, % (tested at about 1.8 µM); 340,000 compounds, 0.95% hits;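 active means maximum activity change below -70%; inconclusive means maximum activity change from -70% to -50%; inactive means maximum activity change above -50%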;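 further: thallium influx rate constant from kinetic fluorescence after stimulation buffer; on the % scale 0 is the no-effect control and ±100 the full control effect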
#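 We transduce U2OS cells with the mutant 3.1 virus, culture them overnight, load FluxOr with Red40 quencher for 45 min, then add stimulation buffer and read kinetically for 2 min to derive a normalized rate constant.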
# Menin-MLL TR inh – displaces Texas Red mutant MLL peptide from human menin. Menin + Texas Red MLL mutant peptide, fluorescence polarization. Potency, µM (titrated, usually from 61.6 µM), for inactives: at the top dose FP activity change, negative = inhibition, most hits filed as inhibitors. 270,000 compounds, 0.23% hits. AID 1768; active means well fitted inhibition curve with a large enough effect in the polarisation, with a control signal flat, not every such curve was filed as active; inconclusive means small, poorly fitted or top-dose-only effect, or effect the other way, or a change in a side signal; inactive means no such curve, though single readings can be large or run the other way; the % refers to the polarisation; further: potency means the concentration at half of the fitted maximal effect; % of control where 0% means no effect; many of its hits are not listed in these tables
# Target sequence (O00255 whole entry, looked up): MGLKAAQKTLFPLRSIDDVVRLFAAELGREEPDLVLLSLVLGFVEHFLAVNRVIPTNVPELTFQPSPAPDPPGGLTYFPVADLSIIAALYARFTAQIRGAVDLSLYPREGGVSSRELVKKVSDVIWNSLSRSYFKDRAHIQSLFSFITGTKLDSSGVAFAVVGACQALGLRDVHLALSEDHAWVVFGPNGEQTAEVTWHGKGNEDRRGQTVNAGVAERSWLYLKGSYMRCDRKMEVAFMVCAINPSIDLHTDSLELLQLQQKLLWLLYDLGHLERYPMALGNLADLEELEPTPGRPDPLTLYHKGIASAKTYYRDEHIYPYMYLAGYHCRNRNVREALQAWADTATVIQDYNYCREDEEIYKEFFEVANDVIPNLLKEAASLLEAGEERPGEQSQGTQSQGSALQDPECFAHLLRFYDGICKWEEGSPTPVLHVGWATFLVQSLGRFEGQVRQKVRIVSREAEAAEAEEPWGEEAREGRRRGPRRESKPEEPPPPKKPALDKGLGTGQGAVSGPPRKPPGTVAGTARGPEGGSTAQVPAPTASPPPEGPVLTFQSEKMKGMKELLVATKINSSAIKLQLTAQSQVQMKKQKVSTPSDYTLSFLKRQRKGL
# GALK inhibitor – blocks human galactokinase activity | P51570 | Purified GALK, Kinase-Glo residual ATP luminescence | Potency, µM (highest dose often 57.5 µM), for the others: top-dose activity change, negative = inhibition, most hits filed as inhibitors | 270,000 compounds, 0.007% hits | AID 1868; further: potency means the concentration at half of the fitted maximal effect; on the % scale 0 is the no-effect control and ±100 the full control effect
#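 Luminescence from leftover ATP (Ultra-Glo luciferase/luciferin) served as read-out after a 1 h room-temperature reaction of 5 nM GALK with 35 uM ATP and 100 uM galactose.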
# Giardia kill – Giardia lamblia killing; activity change, % at 7.66 µM, hits read low; Giardia lamblia trophozoite viability; 340,000 compounds, 0.15% hits; in the data active means activity change below about -80%; inconclusive means between about -30% and that limit;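 further: parasites exposed to compound for two days anaerobically before the ATP read; on the % scale 0 is the no-effect control and ±100 the full control effect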
#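 Luminescent ATP signal served as the viability read-out, measured 15-30 min after adding ATP detection reagent to trophozoites that had been incubated with compounds for 48 hrs at 37 deg C anaerobically at 100 cells/well.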
# USP2a block – inhibitors of human ubiquitin-specific protease USP2a; O75604; USP2 core, Ub-CHOP2 coupled fluorogenic reporter, 485/531; Potency, µM (doses to about 38.3 µM), for inactives: at the top dose activity change, negative = inhibition, usual class: inhibitors; 330,000 compounds, 0.01% hits; AID 463254;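 further: potency means the concentration at half of the fitted maximal effect; plate controls were DMSO wells for no effect and full inhibition by NEM control for full effect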
#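 Deubiquitinase activity read as fluorescence (485/531 nm) after Ub-CHOP2 cleavage activates the enterokinase reporter on its substrate; USP2 core 10nM, Ub-CHOP2 and substrate 25nM each, 30min compound preincubation then 60min RT; data normalized to NEM, curves fitted.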
# KCNH2 WT inh – blocks the wildtype human KCNH2 potassium channel | Q12809 | U2OS, BacMam KCNH2, thallium flux FluxOr; active compounds read low | activity change, % at 1.84 µM | 340,000 compounds, 0.37% hits | AID 720551;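 active means maximum activity change below -70%; inconclusive means maximum activity change between -70% and -50%; inactive means maximum activity change above -50%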; further: on the % scale 0 is the no-effect control and ±100 the full control effect
#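 U2OS cells were transduced with wild-type KCNH2 virus (2.03 x 10^8 / mL) for 4 h at room temperature, then cultured overnight at 37 C. Thallium flux was read with FluxOr dye. Rate constants were normalized to DMSO controls.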
# Starred values were filed as active, the others as inactive; i = inactive; ? = inconclusive; nt = no result given; & = joins results of further samples; [ ] = remark or other dose. Unless noted, the call rests on the fitted dose curve; in most records, active means well fitted curve in the direction sought with a large enough effect; inconclusive means small, poorly fitted or top-dose-only effect, or another doubt; inactive means no such curve, though single readings can be large; an effect the other way counts as inactive or inconclusive. The list is partial. The share of hits here may be higher or lower than overall.
SMILES,B2AR arrestin,FBPA coupling cs,MLL CXXC-DNA inh,TRPV1 agonist,KCNH2 3.1 inh,Menin-MLL TR inh,GALK inhibitor,Giardia kill,USP2a block,KCNH2 WT inh
Cc1ccc(OCc2nnc(N)s2)cc1,0.0%,6,-3%,0,-9,11%,6%,-3,3%,5
CCOc1ccc(-c2nnn(CC(=O)NCc3ccc(C)cc3)n2)cc1,-0.1%,4,-4%,4,1,6%,0%,-3,1%,-1
O=C(NC1CCN(Cc2ccccc2)CC1)c1ccc(Cl)cc1Cl,-0.2%,1,16%,1,?,-16%,0%,18,5%,47
Cc1ccc(S(=O)(=O)N2CCN(c3ncnc4sccc34)CC2)cc1,-1.2%,nt,4%,16,8,nt,-4%,13,0%,4
COc1cccc(C(CC(=O)NCC2CCCO2)NS(=O)(=O)c2ccc(C)cc2)c1OC (stereo not given),0.1%,0,6%,-2,5,-14%,-1%,-1,2%,5
O=C(NNC(=O)C1CCN(S(=O)(=O)c2cccc(C(F)(F)F)c2)CC1)C1CC1,-0.4%,1,2%,1,-1,13%,-3%,0,1%,-22
COc1ccc(C(=O)c2c(C(F)(F)F)oc3c2C(=O)c2ccccc2C3=O)cc1,0.1%,-43*,0%,6,3,?,0%,-6,-1%,-2
O=c1oc2ccccc2n1Cc1ccccc1Cl,-1.3%,6,-12%,28,-5,1%,-1%,10,0%,-6
Cc1cccc(-c2nnc(-c3ccc(N)cc3)o2)c1,0.1%,1,4%,-2,0,6%,0%,-10,0%,-6
CCN1C(=O)C2(SC(NC(C)=O)=NN2C(C)=O)c2cc(C)cc(C)c21 (stereo not given),-0.2%,0,5%,-3,10,-9%,-3%,-3,2%,2
COc1ccc(C(=O)N2CCCN(C)CC2)cc1S(=O)(=O)N1CCCc2ccccc21,-1.2%,3,0%,1,-3,-14%,-2%,12,4%,1
O=C(NCCN1CCN(c2ccc([N+](=O)[O-])cc2)CC1)NCc1ccccc1,0.2%,5,14%,11,-73*,2%,-5%,-1,2%,-10
CC(=O)Nc1ccc(S(=O)(=O)/N=C2/NC(=O)/C(=C\c3ccco3)S2)cc1,-0.7%,1,4%,-1,-4,1%,-13%,13,-30%,-4
CCOc1ccc(N(CC(=O)NCc2ccc(F)cc2)S(=O)(=O)c2c(C)noc2C)cc1,-0.2%,0,1%,13,1,-2%,2%,48[activator],1%,-1
O=C1c2c(O)cc(O)cc2O[C@H](c2ccc(O)c(O)c2)C1O (stereo not given in full),nt,-2,nt,nt,nt,35%[activator],nt,nt,nt,nt
NS(=O)(=O)c1ccc(NC(=O)CN2CCc3ccccc3C2)cc1,-0.4%,0,2%,2,-9,4%,-3%,8,0%,6
CC(C)(C)c1ccc(CCC(CC(=O)O)CC(=O)O)cc1,-0.9%,4,-26%,0,14,-8%,-1%,-11,0%,nt
S=c1[nH]nc(COc2ccc(Cl)cc2)n1-c1ccc(Cl)cc1,-0.5%,10,-8%,1,-6,?,5%,14,-1%,-21
C/C(N)=C(/C#N)C(=O)COC(=O)c1cccc(O)c1,0.3%,-1,-2%,2,2,-6%,-1%,-1,1%,0
CC(=NCCN1CCN(C(=S)Nc2ccccc2)CC1)C1=C(O)CC(C)(C)CC1=O,-0.2%,2,-2%,-1,1,39%[activator],0%,-6,2%,2
COc1ccc(NC(=O)COC(=O)[C@@H]2CCCN2S(=O)(=O)c2ccccc2F)c(OC)c1,0.1%,1,2%,0,-3,-5%,-2%,-19,-1%,-1
COc1ccc2oc(=O)c(C(=O)NCc3ccc(F)cc3)cc2c1,-0.3%,3,-4%,24,-4,7%,-4%,-11,1%,-6
CCOc1cc(CNn2cn[nH]c2=S)cc(Cl)c1OCc1ccccc1F,-0.3%,4,?,?,5,12%,0%,-11,4%,6
CC(=O)c1ccc(-n2ccnc2)cc1,-0.8%,6,-2%,6,-8,nt,5%,10,-2%,0
Cc1nn(CC2CC2)c(=O)n1-c1ccc(C(C)C)cc1,-0.9%,1,9%,3,18,-12%,4%,0,1%,-7
COc1ccc(CCNC(=O)CCC(=O)n2ncc3cc(C)ccc32)cc1OC,0.1%,1,nt,-2,-5,7%,nt,-21,1%,-13
COc1cc(/C=N/NC(=O)COc2cccc(F)c2)ccc1OS(=O)(=O)c1ccc(C)cc1,-0.2%,-5,5%,5,-18,16%,1%,-8,-10%,-3
COc1cccc(NC(=O)C2CCCN(S(=O)(=O)c3cccc4cccnc34)C2)c1 (stereo not given),0.3%,1,0%,0,4,-4%,-1%,?,1%,6
CC(=O)Nc1ccc(/C=C/c2nc3ccccc3[nH]c2=O)cc1,-0.1%,1,18%,0,-13,13%,8%,5,1%,0
CN(C)CCN1C(=O)C(=O)/C(=C(/O)c2ccc(F)cc2)C1c1ccccc1F (stereo not given),-0.8%,5,-5%,11,4,2%,1%,-20,1%,-10
O=C(Nc1cccc2c1CCCC2)C1CCN(c2nnnn2-c2ccccc2)CC1,-0.1%,3,9%,-1,-2,-15%,0%,2,0%,-20
COc1cc(O)c(C(CCN2CCCC2)c2ccc(N(C)C)cc2)c(OC)c1 (stereo not given),-0.5%,2&2,1%,5,-13,-28%,-1%,-21&0,7%,-6
CCNC(=O)CSc1nnc(-c2cccs2)o1,0.1%,1,4%,0,-7,4%,-2%,23,1%,i
CC1(OC(=O)C2CCCC2)C(=O)C=C2C=C(c3ccsc3)N(C3CCCCC3)C=C2C1=O (stereo not given),0.3%,-18&-17,-3%,4,-20,-21%[11.7 µM],-2%,5,0%,-6
CCCCCCn1c(Br)nc2c1c(=O)n(C)c(=O)n2C,0.1%,2,-15%,-5,6,-18%,5%,-15,-1%,4
O=C(CCCNC(=O)c1ccc(Cl)cc1)Nc1ccccc1F,-0.1%,-1,4%,8,9,3%,0%,-10,0%,3
COc1cccc(C(=O)OCn2nnc3ccccc3c2=O)c1,0.0%,-1,-13%,2,0,-14%,1%,-13,-1%,11
O=C(Nc1ccc(Cl)cc1)OCc1cncs1,0.0%,5,-8%,-5,1,21%,-2%,4,-6%,4
Cc1ccc(SCCNC(=O)c2ccccc2C)cc1,-1.1%,1,4%,?,18,0%,-1%,-4,0%,-11
Cc1cc(=O)oc(C)c1C(=O)N1CCN(c2ccc(F)cc2)CC1,0.5%,-1,4%,-3,12,-5%,-1%,0,-1%,2
Cc1nc(SCC(=O)NC(=O)NCCC(C)C)c2c(-c3cccs3)csc2n1,-0.4%,3,4%,4,-30,-29%,-4%,-20,-1%,3
O=C(N/N=C/c1ccc(Cl)cc1)c1nc2ccc([N+](=O)[O-])cc2c(=O)[nH]1,-0.4%,0,0%,-2,-19,?,1%,-22,0%,nt
Cc1ccc(C)c(C(=O)OCC(=O)Nc2ccc(N3CCOCC3)cc2)c1,-0.2%,2,8%,12,3,2%,10%,-15,0%,0
Brc1cccc(CN2CCCCCC2)c1,-1.1%,0,-11%,3,-2,-1%,0%,9,0%,3
Cc1nn2c(CN(C(=O)CN3CCOCC3)c3ccccc3)nnc2c2ccccc12,-0.3%,7,3%,4,15,-16%,0%,-15,5%,6
CCCCN1CC(=O)N2[C@H](c3ccc(Cl)cc3)[C@@H]3C(=O)N(CC)C(=O)[C@@H]3[C@]2(Cc2ccccc2)C1=O,0.4%,2,3%,-1,-24,4%,nt,9,0%,6
CCOc1ccc(OCc2ccc(C(=O)NN)o2)cc1,-1.0%,4,0%,?,14,nt,5%,5,-1%,-3
O=c1c2ccccc2c(C=NC2CCN(Cc3ccccc3)CC2)c(O)n1Cc1ccc2c(c1)OCO2,-0.8%,-4,48%[activator],-1,nt,9%,4%,nt,-7%,nt
C=CCNC(=O)COC(=O)CCC(=O)c1cccs1,-0.5%,3,8%,nt,-9,nt,3%,-14,-1%,-4
O=C(c1ccc2ccccc2c1)C1CCCN(C(=O)c2cnccn2)C1 (stereo not given),2.3%,-3,-5%,-9,17,nt,-1%,13,-1%,-4
Nc1nonc1C(=O)NCCNC(=O)c1ccccc1F,-0.7%,0,-2%,2,8,-7%,-1%,4,0%,-5
COc1ccc2c(C)cc3nncn3c2c1,0.0%,-3,-7%,-3,5,1%,7%,-2,2%,4
CN(C)c1ccc(N=C/C=C2\N(C)c3ccccc3C2(C)C)cc1,-0.2%,-3,?,nt,-28,nt,0%,22,-1%,-5
CCOC(=O)C(NC(=O)CC)(Nc1sc2c(c1C(=O)OC)CCN(C)C2)C(F)(F)F (stereo not given),0.0%,2,2%,-3,-1,1%,-2%,-5,3%,1
Cc1ccc2c(c1)nnn2C1CCN(S(=O)(=O)c2ccc(C(=O)N(C)C3CCCCC3)cc2)CC1,-0.6%,0,-5%,3,-6,-3%,0%,18,-1%,42
CCC(=O)OCCCCCCOc1ccc(C(=O)O)cc1,-0.4%,10,4%,0,-10,-26%,-1%,1,0%,4
O=C(NC12CC3CC(CC(C3)C1)C2)N1CCN(c2ccccc2)CC1,-0.7%,-1,2%,?,17,-6%,0%,-6,-2%,-3
NC(=O)N/N=C/c1ccccc1OC(=O)c1cc2ccccc2oc1=O,0.3%,0,-3%,4,10,-1%,7%,-16,1%,14
